Screening results: PubChem BioAssay, National Center for Advancing Translational Sciences (NCATS)
VACV mCherry inh: vaccinia inhibition (mCherry reporter); 310,000 compounds, 0.63% hits; AID 720579; Potency, µM (top dose mostly 36.5 µM), for the others: at the top dose activity change, negative = inhibition, most hits filed as inhibitors; Vaccinia virus mCherry reporter infection, fluorescence; about a quarter of the inactives have no number; active = well fitted inhibition curve with a large enough effect; inconclusive = small, poorly fitted or top-dose-only effect; inactive = no such curve, though single readings can be large or run the other way; tested in A549 cells; further: nearly all actives have a fitted effect of over 35% in size; inactives centre near -10
VACV Venus inh: vaccinia inhibition (Venus reporter). Vaccinia virus Venus reporter expression, fluorescence. Potency, µM (highest dose often 36.5 µM), without a hit: at the highest dose activity change, negative = inhibition, actives largely listed as inhibitors. 330,000 compounds, 0.46% hits. AID 720580; active means well fitted inhibition curve with a large enough effect; inconclusive means small, poorly fitted or top-dose-only effect; inactive means no such curve, though single readings can be large or run the other way; tested in A549 cells; further: nearly all actives have a fitted effect of over 30% in size; inactives centre near -10
The depositor's hits bear a star; i = inactive; ? = inconclusive; nt = not tested or not shown; & = joins results of further samples; [ ] = another dose, or the depositor's remark. On the % scale 0 is the no-effect control and ±100 the full control effect; potency means the concentration at half of the fitted maximal effect.

No.	compound	VACV mCherry inh	VACV Venus inh
1	Cc1cccc(N2CCN(S(=O)(=O)c3ccc(S(=O)(=O)N4CCCC4)cc3)CC2)c1C	-4%	-9%
2	Cc1ccc(-n2c(O)c(/C=N/c3ncn[nH]3)c3ccccc3c2=O)cc1	-25%	0%
3	COc1cccc(CNC(=O)c2c[nH]n3c(=O)c(Cl)c(C)nc23)c1	i	-4%
4	O=C(C[n+]1ccc2c(c1)nnn2-c1ccccc1)c1ccc(Cl)cc1	?	-14%
5	COc1cc(NC(=O)N2CCNC2=O)cc(C(=O)Nc2cccc(C(F)(F)F)c2)c1	?	-25%
6	COc1c(/C=N/NC(=O)c2ccncc2)c(CCN(C)C(C)=O)cc2c1OCO2	i	-5%
7	CC1(C)C2CCC13CS(=O)(=O)NC3C2 (stereo not drawn)	nt	-15%
8	CCOC(=O)c1cnc2c(ccc3ccccc32)c1Nc1ccc(OC)cc1OC	-19%	-18%
9	COc1ccc(CCNCc2ccc(C)s2)cc1OC	7%	-4%
10	CN(C)CC/C=C1/c2ccccc2COc2ccccc21	-18%	-9%
11	O=C(c1ccc(C#Cc2ccccc2)o1)N1CCN(c2ccccn2)CC1	-8%	-2%
12	O=C(NCCC1=CCCCC1)C(=O)NCCc1ccc(Cl)cc1	-2%	-1%
13	COc1ccc(C(=O)OCC(=O)c2ccc[nH]2)cc1	i	-12%
14	CC(=O)c1ccc(OCC(=O)Nc2c(C)nn(-c3ccccc3)c2C)cc1	?	-16%
15	c1ccc2c(c1)C(=NCC1CCCO1)NC2=NCC1CCCO1 (stereo not drawn)	-18%	-17%
16	CC(C)(C)C1CCC(C(=O)Nc2ccccc2N2CCOCC2)CC1 (stereo not drawn)	-2%	-8%
17	Cc1ccc(CNS(=O)(=O)NCc2ccccc2)cc1	i	-4%
18	Cc1cc2[nH]c(=O)c(=O)[nH]c2cc1S(=O)(=O)N1CCN(c2ccccc2)CC1	-1%&0%	-5%&1%
19	COC(=O)c1sc(S(=O)(=O)N2CCN(CCO)CC2)c(C(=O)OC)c1C	i	-2%
20	O=C1CSC(=S)N1	-8%	-9%
21	CCOC(=O)CCC(=O)Nc1ccc([N+](=O)[O-])cc1C	-25%	-11%
22	COC(=O)COc1ccc2c(=O)c(-c3ccccc3)coc2c1	i	-6%
23	O=Cc1ccc(OCC(=O)NC(=O)NC2CCCCC2)cc1	-10%	-3%
24	CC(C)NC(=O)N(C)C[C@H]1Oc2ccc(NC(=O)NC3CCCCC3)cc2C(=O)N([C@H](C)CO)C[C@@H]1C	-15%	-16%
25	CC(CC(=O)Nc1ccccc1)NCCCN1CCCC1=O (stereo not drawn)	-8%	-5%

Going on with the list.
No.	compound	VACV mCherry inh	VACV Venus inh
26	COc1cc(C(=O)NC2(C(F)(F)F)C(=O)NC(C)=C2C#N)cc(OC)c1OC (stereo not drawn)	-7%	-1%
27	Cc1cc(C)cc(NC(=O)C2CCCN2C(=O)NC2CCCCC2)c1 (stereo not drawn)	-4%	-11%
28	Cc1ccc(C2(C)NC(=O)N(CC(=O)NC(=O)NCCC(C)C)C2=O)cc1 (stereo not drawn)	0%	-13%
29	C/C(=N\Nc1cccc(C(=O)O)c1)c1cc2ccccc2o1	-9%	-7%
30	C[C@H](CO)N1C[C@H](C)[C@@H](CN(C)C)Oc2c(NS(=O)(=O)c3ccc(F)cc3)cccc2C1=O	i	-10%
31	Cc1ccc(C(=O)N=c2sccn2C)cc1C	-11%	10%
32	CCOC(=O)c1ccc(NC(=O)CN2c3ccccc3S(=O)(=O)c3ccccc32)cc1	-12%	-7%
33	CN1CCN(c2ncc3c(n2)CCN(Cc2cc(Br)cs2)C3)CC1	-11%	-9%
34	COc1ccccc1C1CC(c2ccc(Br)cc2)=NN1C(=O)c1cccnc1 (stereo not drawn)	-22%	?
35	O=C(CN1CCOCC1)Nc1nc2ccc([N+](=O)[O-])cc2s1	-7%	-11%
36	CCc1ccc(-n2nc3ccc(NC(=O)c4ccc(C#N)cc4F)cc3n2)cc1	6%	-5%
37	Cc1ccnc(NC(=O)c2cccc(S(=O)(=O)N3CCCc4ccccc43)c2)c1	-23%	-11%
38	Brc1ccc(C2Nc3cccc4cccc(c34)N2)s1	-1%	-16%
39	Cc1ncoc1C(=O)N1CCCC(C(=O)c2ccc(Oc3ccccc3)cc2)C1 (stereo not drawn)	i	-6%
40	Cc1nnc(SCC(=O)NC(=O)NCc2ccco2)n1Cc1ccccc1	nt	-6%
41	COCCNC(=O)C1(C)CCN(C(=O)c2cccnc2Oc2ccccc2)C1 (stereo not drawn)	28µM*	32µM*
42	COCC1CCN(C(=O)c2cc(COc3ccc4c(c3)CCCC4)on2)C1 (stereo not drawn)	-1%	-15%
43	O=C(NCC(c1cccs1)N1CCOCC1)c1ccccc1NS(=O)(=O)c1cccc([N+](=O)[O-])c1 (stereo not drawn)	-30%	-25%
44	Cc1cccc(N(Cc2cc3ccccc3[nH]c2=O)S(=O)(=O)c2ccccc2)c1	i	-17%
45	Cc1ccc(/C=C/C(=O)NCC2COc3ccccc3O2)o1 (stereo not drawn)	-5%	4%
46	Cc1cccc(-n2ncc3c(NCCCO)ncnc32)c1	2%	-17%
47	Cc1ccc(-c2nc3ccc(C)cn3c2Cc2ccccc2C(F)(F)F)cc1	1%	-1%
48	Cc1ccc(NC(=O)CSc2nc(O)c(Cc3ccccc3)c(=O)n2-c2ccccc2)cc1	-4%	4%
49	COc1ccc(C(=O)CSc2nnc(CNc3nc(-c4ccccc4)cs3)n2C)cc1	nt	-26%
50	Cc1ccccc1C(=O)N1N=C(c2ccc(NS(C)(=O)=O)cc2)CC1c1cccs1 (stereo not drawn)	-2%	-8%

More results.
No.	compound	VACV mCherry inh	VACV Venus inh
51	CCOc1ccc(C(C(=O)NCC2CCCO2)N(C(=O)c2snc(C(N)=O)c2N)c2ccccc2F)cc1 (stereo not drawn)	-3%	-12%
52	Cc1ccc(C2CCN(C(=S)NC3CCCCC3)C2)cc1 (stereo not drawn)	i	-2%
53	Cn1c(CCc2nc3ccccc3[nH]2)n[nH]c1=S	-6%	2%
54	COCCN(C(=O)COC(=O)/C=C/c1ccc(OC)c(OC)c1)c1c(N)n(Cc2ccccc2)c(=O)[nH]c1=O	i	-3%
55	Cc1ccc2nc3n(c(=O)c2c1)CCC3	-10%	-3%
56	COc1ccc(Cl)cc1Nc1nc(C)cc(=O)[nH]1	nt	?
57	Cc1ccc(C(=O)N2[C@@H]3CN(C)C(=O)[C@@]2(Cc2ccccc2)[C@H]2C(=O)N(Cc4ccccc4)C(=O)[C@@H]32)cc1	i	-16%
58	O=C(Nc1ccc(OC(F)F)cc1)c1ncc(Cl)c(Cl)c1Cl	-9%	-13%
59	Cc1ccc2c(c1)c(C)cc[n+]2Cc1ccccc1	?	-28%
60	CC1C(=O)N2CCCc3cc(NC(=O)c4ccccc4F)cc1c32 (stereo not drawn)	i	-10%
61	CCN(CCCNC(=O)CSc1cc(=O)n(C)c2cc(Cl)ccc12)c1ccccc1	-10%	-12%
62	CCOC(=O)c1nn(-c2ccccc2)c(C(=O)OCC)c1N	-20%	-12%
63	O=Cc1c(NCc2ccccc2Cl)c2ccccc2[nH]c1=O	-11%	-18%
64	COC(=O)C(C)n1cnc2c(nnn2-c2ccc(F)cc2)c1=O (stereo not drawn)	i	-8%
65	CCOc1ccc2nc(N3CCCC(C(=O)Nc4ccc(OC)c(Cl)c4)C3)sc2c1 (stereo not drawn)	-14%	-23%
66	Cc1ccc(NC(=O)CN(C)C(=O)c2cc(-c3ccccc3)nn2-c2ccccc2)cc1	-8%	-20%
67	CCCCOc1ccc(C(=O)Nc2cc(-c3cn4cccnc4n3)ccc2OC)cc1	-3%	-5%
68	N#CC1=C(N)N2C(=C(C#N)C13CCCC3)Nc1ccccc12	-14%	-3%
69	COc1ccc(OC)c(-c2cc(C3CCN(C(=O)OC(C)(C)C)CC3)[nH]n2)c1	?	-22%
70	O=C(NNC(=O)C1CCCC1)c1ccccc1F	i	-5%
71	CCN(CC(=O)Nc1cccc(OC)c1)C(=O)c1cnc(Cl)c(Cl)c1	-5%	-8%
72	O=C(C1CCOCC1)N1CCC(CO)(CCc2ccccc2)CC1	-13%	-2%
73	O=C(CN1CCN(S(=O)(=O)c2ccc3ccccc3c2)CC1)Nc1ccc2c(c1)CCC2	-20%	?
74	COc1cccc(CNC(=O)Cn2ncn3nc(-c4cccs4)cc3c2=O)c1	3%	-9%
75	CC(C)[C@H](NC(=O)N1c2ccccc2NC(=O)[C@@H]1C(C)C)C(=O)N[C@@H](Cc1ccccc1)C(=O)O	-8%	-4%

Arranged by length of the SMILES (rising): three of the compounds above.
No.	compound	VACV mCherry inh	VACV Venus inh
56	COc1ccc(Cl)cc1Nc1nc(C)cc(=O)[nH]1	nt	?
58	O=C(Nc1ccc(OC(F)F)cc1)c1ncc(Cl)c(Cl)c1Cl	-9%	-13%
73	O=C(CN1CCN(S(=O)(=O)c2ccc3ccccc3c2)CC1)Nc1ccc2c(c1)CCC2	-20%	?

Later entries:
No.	compound	VACV mCherry inh	VACV Venus inh
76	COc1ccc(S(=O)(=O)NC(=O)C2(C)CCN2C(=O)c2c(C)noc2C)cc1 (stereo not drawn)	i	12%
77	COCc1cc(=O)[nH]c(SCC(=O)N2CCOCC2)n1	-11%	-1%
78	O=C(Cn1ncc2c([nH]c3ccccc32)c1=O)NCc1cccc(Cl)c1	-2%	-7%
79	C[C@@H]1CN([C@H](C)CO)S(=O)(=O)c2ccc(-c3ccc(C#N)cc3)cc2O[C@H]1CN(C)C(=O)Nc1cc(F)ccc1F	-21%	?
80	CC1C(=O)OC(c2ccc(Cl)cc2)C(C)(C)C1=O (stereo not drawn)	-16%	-12%
81	COc1cc(C(=O)NC2CC(=O)N(c3cccc(F)c3)C2)cc(OC)c1OC (stereo not drawn)	-14%	-7%
82	Cc1[nH][nH]c(=O)c1C(c1ccc(O)c(Br)c1)c1c(C)[nH][nH]c1=O	-13%	-15%
83	CCOc1ccc(Br)cc1S(=O)(=O)Nc1ccc(S(=O)(=O)Nc2cc(C)on2)cc1	-16%	6%
84	Oc1ccc(Cl)cc1Sc1cc(Cl)ccc1O	?	?
85	Cc1ccc(C)c(SCC(=O)OCC(=O)Nc2ncc(C(F)(F)F)cc2Cl)c1	-1%	-20%
86	CS(=O)(=O)c1ccc(-c2csc(C(O)c3cccc(Cl)c3)n2)cc1 (stereo not drawn)	i	-21%
87	O=C(CSC(=S)N1CCCC1)c1cc(Br)cc(Br)c1O	14%	45%[activator]
88	COc1ccccc1NC(=O)CSc1nc2c(oc3ccccc32)c(=O)n1Cc1ccco1	-7%	1%
89	O=C(NC(=S)NC1CCCC1)c1ccccc1	5%	6%
90	Cc1cc(C)c(C)c(S(=O)(=O)N2C(=S)NC(=O)C2C(C)C)c1C (stereo not drawn)	nt	-10%
91	COc1ccc(N2CCN(Cc3ccc(Br)s3)CC2)cc1	-12%	-5%
92	COc1ccc(C(=O)COC(=O)c2ccc(N(C)C)cc2)cc1	0%	-11%

Grouped by structure: the entries above containing a Cl atom (14)
No.	compound	VACV mCherry inh	VACV Venus inh
3	COc1cccc(CNC(=O)c2c[nH]n3c(=O)c(Cl)c(C)nc23)c1	i	-4%
4	O=C(C[n+]1ccc2c(c1)nnn2-c1ccccc1)c1ccc(Cl)cc1	?	-14%
12	O=C(NCCC1=CCCCC1)C(=O)NCCc1ccc(Cl)cc1	-2%	-1%
56	COc1ccc(Cl)cc1Nc1nc(C)cc(=O)[nH]1	nt	?
58	O=C(Nc1ccc(OC(F)F)cc1)c1ncc(Cl)c(Cl)c1Cl	-9%	-13%
61	CCN(CCCNC(=O)CSc1cc(=O)n(C)c2cc(Cl)ccc12)c1ccccc1	-10%	-12%
63	O=Cc1c(NCc2ccccc2Cl)c2ccccc2[nH]c1=O	-11%	-18%
65	CCOc1ccc2nc(N3CCCC(C(=O)Nc4ccc(OC)c(Cl)c4)C3)sc2c1 (stereo not drawn)	-14%	-23%
71	CCN(CC(=O)Nc1cccc(OC)c1)C(=O)c1cnc(Cl)c(Cl)c1	-5%	-8%
78	O=C(Cn1ncc2c([nH]c3ccccc32)c1=O)NCc1cccc(Cl)c1	-2%	-7%
80	CC1C(=O)OC(c2ccc(Cl)cc2)C(C)(C)C1=O (stereo not drawn)	-16%	-12%
84	Oc1ccc(Cl)cc1Sc1cc(Cl)ccc1O	?	?
85	Cc1ccc(C)c(SCC(=O)OCC(=O)Nc2ncc(C(F)(F)F)cc2Cl)c1	-1%	-20%
86	CS(=O)(=O)c1ccc(-c2csc(C(O)c3cccc(Cl)c3)n2)cc1 (stereo not drawn)	i	-21%
